TRPV1 potentiator: potentiators of human vanilloid receptor 1 (TRPV1); TRPV1-expressing cells, Fluo-8 calcium influx, capsaicin EC20 potentiation; host cell line not named in the record; control for the full effect not named in the record; 320,000 compounds, 0.02% hits; potentiation, % at 8.33 µM; AID 540277; active means potentiation above 80%; inconclusive means 30% to 80%; inactive means below 30%; also: 0% is about no effect
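TRPV1-expressing cells were cultured overnight at 35.5C and loaded with Fluo-8 calcium dye for 40 to 90 min at room temperature. After a 10 s baseline, compound was added and calcium influx was read kinetically for 3 min (ex 480/em 520 nm).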
Sfp PPTase inh: blocks B. subtilis Sfp PPTase activity; Potency, µM, without a hit: max response, negative = inhibition, hits mostly inhibitors; 310,000 compounds, 3.5% hits; Q9F4F7; Biochemical Sfp PPTase activity, qHTS; active = well fitted inhibition curve with a large enough effect; inconclusive = small, poorly fitted or top-dose-only effect, or another doubt; inactive = no such curve, though single readings can be large or run the other way;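 also: the enzyme is Sfp with the accession as filed and its product quenches rhodamine fluorescence; potency is read from the fitted curve at half-maximal effect; 0% = enzyme reaction without inhibitor and -100% = no enzyme wells; top concentration of the series not given in the record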
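Reaction rates are the 30-min fluorescence difference (ex 525, em 598 nm) in wells containing 15 nM Sfp, 5 uM rhodamine-CoA and 12.5 uM BHQ-2-YbbR at pH 7.6 with 10 mM MgCl2.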
gsp ag: gsp mutant agonism; gsp mutant cells, cAMP HTRF, 30 min; control for the full effect not named in the record; Potency, µM (top dose mostly 76.9 µM), for inactives: at the highest dose activation (cAMP increase), actives largely listed as activators; 340,000 compounds, 0.13% hits; AID 624287; active = well fitted activation curve with a large enough effect; inconclusive = small, poorly fitted or top-dose-only effect, or another doubt; inactive = no such curve, though single readings can be large or run the other way; cell line not stated here;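 also: phosphodiesterase inhibitor Ro 20-1724 added with compounds to block cAMP breakdown; potency is read from the fitted curve at half-maximal effect; nearly all actives have a fitted effect of over 60% in size; about a fifth of the inactives were tested at one dose only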
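Cells in DMEM/10% FBS with G418 were pretreated with compounds in DMSO plus […] (300 uM stock) for 30 min at 37C. cAMP was measured by HTRF (cAMP-d2 plus anti-cAMP antibody-K) after 30 min at room temperature.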
gsp antagonist: gsp mutant antagonism. gsp-mutant cells, cAMP HTRF, 30 min; control for the full effect not named in the record. Potency, µM (highest dose often 76.9 µM), without a hit: at the top dose activity change, negative = inhibition, actives largely listed as inhibitors. 340,000 compounds, 0.4% hits. AID 624288; active = falling curve of any shape with a large fitted effect; inconclusive = falling curve, mostly with a smaller effect; inactive = flat or rising curve; cell line not stated here;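 also: intracellular cAMP measured with PDE inhibitor Ro 20-1724 present during compound exposure; potency is read from the fitted curve at half-maximal effect; % is scaled to controls: 0 for no effect and ±100 for the full control effect; nearly all actives have a fitted effect of over 65% in size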
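HTRF cAMP measurement after 30 min RT detection following 30 min, 37C compound treatment alongside […] (added as 300 uM solution) in G418-selected cells seeded at 2000/well and grown 16–24 h.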
D2 potentiator: positive allosteric modulators of human D2 dopamine receptor; 360,000 compounds, 0.23% hits; DiscoveRx D2 beta-arrestin cells, luminescence, 90 min; 100% = 57 uM dopamine signal; potentiation, % (no concentration beside the values); P14416; active = potentiation of 50% or more; inconclusive = 30% to 50%; inactive = 30% or less;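 also: compound concentration not given in the record; tested on top of an EC20 dose of dopamine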
Target sequence (P14416 whole entry, looked up): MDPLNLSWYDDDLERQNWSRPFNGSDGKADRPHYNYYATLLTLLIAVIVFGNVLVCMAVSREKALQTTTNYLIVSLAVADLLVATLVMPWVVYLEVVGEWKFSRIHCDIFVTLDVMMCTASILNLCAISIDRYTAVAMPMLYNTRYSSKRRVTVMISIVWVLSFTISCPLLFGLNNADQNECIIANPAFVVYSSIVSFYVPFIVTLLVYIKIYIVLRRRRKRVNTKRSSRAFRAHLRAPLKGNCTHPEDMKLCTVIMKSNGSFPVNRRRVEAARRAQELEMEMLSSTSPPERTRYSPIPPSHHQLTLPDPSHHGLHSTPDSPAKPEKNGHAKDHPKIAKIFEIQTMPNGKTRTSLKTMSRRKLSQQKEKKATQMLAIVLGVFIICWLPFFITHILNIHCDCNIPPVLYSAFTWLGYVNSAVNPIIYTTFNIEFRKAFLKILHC
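D2 cells co-treated with compound plus 50 nM dopamine (EC20) for 90 min at 37 deg C to detect potentiation. Beta-arrestin recruitment was read as enzyme-fragment luminescence after 1 h at ambient temperature. Full response was set by 57 uM dopamine.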
Menin-MLL FL inh: menin-MLL binding inhibition, fluorescein peptide | FP activity change, % at 61.4 µM | Fluorescence polarization, fluorescein-MLL peptide displacement from menin | 290,000 tested, under 10 active; inconclusive = falling polarisation curve, or a change in total fluorescence; inactive = total fluorescence flat and polarisation flat or rising; no compound was filed as active; the % refers to the polarisation; negative = inhibition;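 also: % of control where 0% means no effect; inhibitors lower the polarisation; unlabelled MLL peptide was the positive control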
ClpP mod: qHTS Assay for Activators of ClpP; ATP-dependent Clp protease proteolytic subunit (Bacillus subtilis (strain 168)), P80244; purified B. subtilis ClpP, FRET peptide cleavage, 20 min; Potency, µM (doses to about 57.5 µM), for inactives: at the highest dose activity change, negative = active; 340,000 compounds, 1.9% hits; AID 651965, 2013; active = well fitted falling curve with a large enough effect; inconclusive = small, poorly fitted or top-dose-only effect; inactive = no such curve, though single readings can be large or run the other way; also: potency is read from the fitted curve at half-maximal effect; the source files actives as falling curves though it sought activators and does not explain the sign; nearly all actives have a fitted effect of over 65% in size; many hits overshoot -100%
Target sequence (P80244 whole entry, looked up): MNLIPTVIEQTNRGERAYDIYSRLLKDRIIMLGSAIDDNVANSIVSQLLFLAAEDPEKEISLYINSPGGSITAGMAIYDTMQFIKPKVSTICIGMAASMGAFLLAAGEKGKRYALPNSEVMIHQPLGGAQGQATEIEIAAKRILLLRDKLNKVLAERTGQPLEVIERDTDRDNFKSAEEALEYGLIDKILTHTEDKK
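Purified B. subtilis ClpP, 10 microg/mL final in Tris/HCl pH8 with KCl, BSA, glycerol and Tween-20, cleaved an Abz/nitrotyrosine-quenched decapeptide. Fluorescence (ex 320, em 430) was read at 0 and 20 min at room temperature. Delta was normalized to 5.8 microM ADEP and DMSO/no-enzyme controls.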
* hit, by the source's call; & = joins results of further samples; [ ] = another dose, or the depositor's remark.

What do the screens show for `CC1CC(C)CN(S(=O)(=O)c2ccc(NC(=O)CCNC(=O)c3ccc([N+](=O)[O-])cc3)cc2)C1` (stereo unspecified)?
TRPV1 potentiator: 2; gsp ag: -19%; gsp antagonist: -1%; D2 potentiator: 5; ClpP mod: 0.3%

How did COc1ccc(C(=O)NCC(C)NC(=O)c2ccc(OC)c(Br)c2)cc1Br (stereo unspecified) do in these assays?
gsp ag: 0%; gsp antagonist: 2%; D2 potentiator: -6

What do the screens show for `COCCCNC(=O)CCSc1ccc(Cl)cc1`?
TRPV1 potentiator: 1; Sfp PPTase inh: 14%; gsp ag: -14%; gsp antagonist: 3%; D2 potentiator: 2; Menin-MLL FL inh: 2.6; ClpP mod: -1.7%

How did Cc1cc(C)nc(NC(=O)CCC2CCCC2)c1 do in these assays?
TRPV1 potentiator: -2; Sfp PPTase inh: 19%; gsp ag: -45%[inhibitor]; gsp antagonist: 13%; D2 potentiator: 4; Menin-MLL FL inh: 0.1; ClpP mod: 1.4%

Results for Cc1ccc(C2Nc3ccccc3C(=O)N2CCN2CCNC2=O)cc1 (stereo unspecified) ?
TRPV1 potentiator: 5; Sfp PPTase inh: 10%; gsp ag: 27%; gsp antagonist: 4%; D2 potentiator: -2; Menin-MLL FL inh: 6.4

What do the screens show for `O=Nc1c(-c2cccc([N+](=O)[O-])c2)nc2ncccn12`?
TRPV1 potentiator: -14; Sfp PPTase inh: 16µM*; Menin-MLL FL inh: -1.3

How did CCOc1ccccc1NC(=S)NCCc1ccccc1 do in these assays?
TRPV1 potentiator: -3; Sfp PPTase inh: 16%; gsp ag: -61%[inhibitor]; gsp antagonist: 1%; D2 potentiator: -6; Menin-MLL FL inh: -3.4; ClpP mod: 0.8%

What do the screens show for `[O-]C(=C(C(=S)Nc1cccc2ccccc12)[n+]1ccccc1)c1ccc2c(c1)OCCO2`?
gsp ag: -4%; gsp antagonist: -3%; D2 potentiator: -12

How did NC(=O)c1c(NC(=O)c2cccnc2Cl)sc2c1CCCC2 do in these assays?
TRPV1 potentiator: 3; Sfp PPTase inh: 1%; gsp ag: 2%; gsp antagonist: -1%; D2 potentiator: 7; ClpP mod: -2.1%

What do the screens show for `Cc1cc(C)nc(SCc2cc(=O)c(OC(=O)c3ccc(Br)o3)co2)n1`?
TRPV1 potentiator: -1; Sfp PPTase inh: 10%; gsp ag: 8%[15.4 µM]; gsp antagonist: 17%; D2 potentiator: -4; Menin-MLL FL inh: 3.6; ClpP mod: -1.8%

What do the screens show for `O=C(CN1CCCCC1)N1CCN(S(=O)(=O)c2ccccc2)C1`?
TRPV1 potentiator: 8; Sfp PPTase inh: 3%; gsp ag: -29%; gsp antagonist: 5%; D2 potentiator: -7; Menin-MLL FL inh: -4.9

How did Cc1ccc(S(=O)(=O)N2C(=O)CCC2C(=O)Nc2ccc3c(c2)OCCO3)cc1 (stereo unspecified) do in these assays?
TRPV1 potentiator: 11; Sfp PPTase inh: -3%; gsp ag: 6%; gsp antagonist: -10%; D2 potentiator: -46; Menin-MLL FL inh: 0.6; ClpP mod: 1.4%

What do the screens show for `O=C(Nc1ccc(Cl)cc1C(F)(F)F)c1ccc(Cl)cc1`?
TRPV1 potentiator: -5; Sfp PPTase inh: 12%; gsp ag: -29%; gsp antagonist: 8%; D2 potentiator: 3; Menin-MLL FL inh: -3.3; ClpP mod: -2.3%

Results for Cc1cccc(N2CCN(S(=O)(=O)c3c(C)[nH]c(C)c3C(=O)N3CCCC3)CC2C)c1 (stereo unspecified) ?
TRPV1 potentiator: -2; Sfp PPTase inh: 20%; gsp ag: inconclusive; gsp antagonist: -7%; D2 potentiator: -5; Menin-MLL FL inh: 2.9; ClpP mod: 0.5%

What do the screens show for `CCCCn1cnc2c1c(=O)n(CC(=O)c1cc(C)n(C)c1C)c(=O)n2CC(C)C`?
TRPV1 potentiator: 0; Sfp PPTase inh: 2%; gsp ag: 6%; gsp antagonist: 2%; D2 potentiator: -7; Menin-MLL FL inh: 2.9; ClpP mod: -4.1%

How did CCOC(=O)C1(Cc2cccc(F)c2)CCN(Cc2cnc(C)s2)CC1 do in these assays?
TRPV1 potentiator: -6; Sfp PPTase inh: 18%; gsp ag: 7%[15.4 µM]; gsp antagonist: 0%; D2 potentiator: -13; Menin-MLL FL inh: -1.9

What do the screens show for `Cc1ccnc(NC(=O)COc2ccc(Cl)cc2)n1`?
TRPV1 potentiator: -11; Sfp PPTase inh: 3%; gsp ag: 6%; gsp antagonist: 10%; D2 potentiator: -5; Menin-MLL FL inh: 1.3; ClpP mod: 0.4%

How did COc1ccc(C)cc1NC(=O)C1CCCN(S(=O)(=O)c2ccc(-n3cnnn3)cc2)C1 (stereo unspecified) do in these assays?
TRPV1 potentiator: -13; Sfp PPTase inh: 3%; gsp ag: 10%[15.4 µM]; gsp antagonist: -36%; D2 potentiator: -2

Results for C[C@H](NC(=O)N1CCn2c1nc1ccccc12)C(=O)N1CCCCC1 ?
TRPV1 potentiator: 1; Sfp PPTase inh: 1%; gsp ag: -2%; gsp antagonist: 10%; D2 potentiator: -8; Menin-MLL FL inh: -5.8; ClpP mod: -0.1%

Results for CC1(C)CCC[C@@]2(C)CC=C(C(=O)O)[C@@H]3C[C@]312 ?
TRPV1 potentiator: 9; gsp ag: -24%; gsp antagonist: 1%; D2 potentiator: 0; ClpP mod: -0.7%

What do the screens show for `COc1ccc(C)cc1NC(=O)CSc1ccc(-c2ccco2)nn1`?
TRPV1 potentiator: -19; Sfp PPTase inh: 18µM*; gsp ag: 6%[15.4 µM]; gsp antagonist: -4%; D2 potentiator: -11; ClpP mod: 0.1%

How did Cc1ccc(NC(=O)COC(=O)c2ccc3c(c2)NC(=O)C2CCCN32)cc1C (stereo unspecified) do in these assays?
TRPV1 potentiator: 5; Sfp PPTase inh: -29%; Menin-MLL FL inh: -0.7

How did O=C(COc1ccccc1Cl)N1CCNC1=O do in these assays?
TRPV1 potentiator: 1; gsp ag: -8%[15.4 µM]; gsp antagonist: 14%; D2 potentiator: -8

What do the screens show for `O=C(COC(=O)[C@@H]1CCCN1S(=O)(=O)c1ccccc1F)c1ccccc1`?
TRPV1 potentiator: -3; Sfp PPTase inh: 8%; gsp ag: inconclusive; gsp antagonist: -1%; D2 potentiator: 0; Menin-MLL FL inh: -0.3

What do the screens show for `COC(=O)C[N+](C)(C)C/C=C\c1ccccc1`?
TRPV1 potentiator: -1; Sfp PPTase inh: 8%; gsp ag: 2%[15.4 µM]; gsp antagonist: -4%; D2 potentiator: -6; Menin-MLL FL inh: 0.6; ClpP mod: -0.1%

Results for O=C(Nc1cccc(O)c1)c1noc2c1CCCCC2 ?
TRPV1 potentiator: -11; Sfp PPTase inh: 7%; gsp ag: -36%; gsp antagonist: 9%; D2 potentiator: 6; Menin-MLL FL inh: -0.7; ClpP mod: -0.1%

Results for CC1CCN(S(=O)(=O)c2cccc(C(=O)N(C)C3CCS(=O)(=O)C3)c2)CC1 (stereo unspecified) ?
TRPV1 potentiator: -11; Sfp PPTase inh: -6%; gsp ag: 2%; gsp antagonist: -6%; D2 potentiator: 1; Menin-MLL FL inh: -0.6; ClpP mod: 0.5%

What do the screens show for `CCC(=O)NCCc1nc2cc(NC(=O)Nc3ccccc3)ccc2n1C`?
TRPV1 potentiator: -5; Sfp PPTase inh: 16%; gsp ag: -11%; gsp antagonist: 14%; D2 potentiator: -6; Menin-MLL FL inh: 0.5; ClpP mod: 0.6%

Results for CCc1ccc(-c2cc(C)no2)cc1S(=O)(=O)NCCc1ccccc1 ?
TRPV1 potentiator: 1; Sfp PPTase inh: 14%; gsp ag: 16%; gsp antagonist: -23%; D2 potentiator: -5; Menin-MLL FL inh: -2.5; ClpP mod: -3.8%

Results for Cc1cccc(/C=C/c2nc3ccccc3c(=O)[nH]2)c1 ?
TRPV1 potentiator: -7; Sfp PPTase inh: -10%; gsp ag: 1%; gsp antagonist: 1%; D2 potentiator: -7; Menin-MLL FL inh: 1.6

How did COc1ccc(CC2C(=O)OC(C)(C)OC2=O)c(Cl)c1OC do in these assays?
TRPV1 potentiator: 1; Sfp PPTase inh: 7%; gsp ag: inconclusive; gsp antagonist: 4%; D2 potentiator: -2; Menin-MLL FL inh: -10

Results for Cc1[nH]c2ccc(C(=O)OCCN(C)C)cc2c1C ?
TRPV1 potentiator: -7; Sfp PPTase inh: 1%; gsp ag: inconclusive; gsp antagonist: -21%; D2 potentiator: -11; Menin-MLL FL inh: -0.2; ClpP mod: -2.7%

What do the screens show for `CCCCn1c(CCC(=O)O)nc2c1c(=O)[nH]c(=O)n2CCC`?
TRPV1 potentiator: 8; Sfp PPTase inh: 19%; gsp ag: 0%; gsp antagonist: 10%; D2 potentiator: -3; Menin-MLL FL inh: 1.7; ClpP mod: -0.6%

How did N=c1sccn1CC(=O)NCCc1ccc(Cl)cc1 do in these assays?
TRPV1 potentiator: -10; Sfp PPTase inh: -11%; gsp ag: -20%; gsp antagonist: 5%; D2 potentiator: -30; Menin-MLL FL inh: 2.3; ClpP mod: 0.6%

What do the screens show for `OCCC1CN(Cc2c(O)ccc3ccccc23)CCN1CCc1ccccc1` (stereo unspecified)?
TRPV1 potentiator: 19; Sfp PPTase inh: 2%; gsp ag: -33%[inhibitor]; gsp antagonist: -2%; D2 potentiator: -7; Menin-MLL FL inh: -6.6

How did CCOC(=O)C(=O)N/N=C/c1cccc(Br)c1 do in these assays?
TRPV1 potentiator: inconclusive; Sfp PPTase inh: 19%; gsp ag: 0%[15.4 µM]; gsp antagonist: -4%; D2 potentiator: -3; Menin-MLL FL inh: 5.0

How did Nc1ccc(C(=O)NCC(=O)O)cc1 do in these assays?
TRPV1 potentiator: -4; Sfp PPTase inh: -12%&13%; gsp antagonist: 27%; D2 potentiator: 0; Menin-MLL FL inh: 0.0; ClpP mod: -5.6%

Bioassay records from PubChem BioAssay.

Compounds as they come (roughly 5.1% active in at least one column).
